High-throughput results deposited in PubChem by National Center for Advancing Translational Sciences (NCATS).
D2 agonist: agonists of human D2 dopamine receptor (beta-arrestin); activation, % (no concentration beside the values); DiscoveRx PathHunter D2 beta-arrestin, luminescence, 90 min; 100% = 57 uM dopamine signal; P14416; 360,000 compounds, 0.084% hits; in the data active = activation above about 40%; inconclusive = about 15% to 40%; inactive = below about 15%; also: compound concentration not given in the record; the text of the record calls up to 30% inactive
Target sequence (P14416 whole entry, looked up): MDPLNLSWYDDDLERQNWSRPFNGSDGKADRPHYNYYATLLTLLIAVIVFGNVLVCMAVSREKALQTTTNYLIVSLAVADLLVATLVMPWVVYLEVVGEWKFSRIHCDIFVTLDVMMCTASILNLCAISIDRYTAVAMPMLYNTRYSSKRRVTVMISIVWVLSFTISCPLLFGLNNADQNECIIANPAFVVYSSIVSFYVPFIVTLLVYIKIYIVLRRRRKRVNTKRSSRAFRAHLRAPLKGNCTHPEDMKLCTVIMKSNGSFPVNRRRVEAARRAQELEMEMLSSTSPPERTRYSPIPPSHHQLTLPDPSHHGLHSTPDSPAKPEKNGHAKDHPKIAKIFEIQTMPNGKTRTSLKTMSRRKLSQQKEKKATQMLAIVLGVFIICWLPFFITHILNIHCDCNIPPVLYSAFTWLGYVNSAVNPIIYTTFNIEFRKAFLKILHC
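DiscoveRx PathHunter D2 beta-arrestin cells (2,100/well) attached overnight, then compound-stimulated 90 min at 37 C in HBSS/10 mM HEPES/0.1% Tween-20 buffer; beta-galactosidase complementation read by luminescence after 1 h at ambient temperature. Dopamine 57 uM final (EC100) as control.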
PINK1 expr mod: modulators of PINK1 expression | PINK1 immunofluorescence, high-content cytometry, 24 h | 410,000 compounds, 0.2% hits | Potency, µM (top dose mostly 76.6 µM), inactives show at the highest dose activation (PINK1 increase), most hits filed as activators; active = well fitted activation curve with a large enough effect; inconclusive = small, poorly fitted or top-dose-only effect; inactive = flat fitted curve, though single readings scatter; cell line not stated here;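 also: potency is read from the fitted curve at half-maximal effect; % of control where 0% means no effect; nearly all actives have a fitted effect of over 65% in size; a mitochondrial uncoupler was the plate control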
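A stable cell line was treated with compounds at 5 concentrations for 24 hours, with CCCP as control. PINK1 levels and mitochondrial localization were measured by immunofluorescence with mitochondrial, cell and nuclear markers after fixation, read by laser-scanning cytometry.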
ClpP mod: qHTS Assay for Activators of ClpP | purified B. subtilis ClpP, FRET peptide cleavage, 20 min | Potency, µM (highest dose often 57.5 µM), for inactives: top-dose activity change, negative = active | 340,000 compounds, 1.9% hits; active = well fitted falling curve with a large enough effect; inconclusive = small, poorly fitted or top-dose-only effect; inactive = no such curve, though single readings can be large or run the other way; also: potency is read from the fitted curve at half-maximal effect; the source files actives as falling curves though it sought activators and does not explain the sign; nearly all actives have a fitted effect of over 65% in size; many hits overshoot -100%
Target sequence (P80244 whole entry, looked up): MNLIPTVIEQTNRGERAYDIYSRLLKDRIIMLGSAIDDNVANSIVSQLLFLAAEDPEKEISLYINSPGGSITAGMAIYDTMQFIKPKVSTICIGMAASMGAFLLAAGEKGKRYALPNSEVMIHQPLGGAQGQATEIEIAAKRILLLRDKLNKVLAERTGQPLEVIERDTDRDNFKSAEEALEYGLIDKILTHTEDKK
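Buffer: 100 mM Tris/HCl pH8, 100 mM KCl, 0.05% low protease BSA, 2.5% glycerol, 0.01% Tween-20. ClpP 10 microg/mL final; 20 min RT; delta FRET normalized to ADEP and DMSO controls.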
gsp ag: activates gsp, the McCune-Albright syndrome mutation | gsp mutant cells, cAMP HTRF, 30 min; control for the full effect not named in the record | Potency, µM (highest dose often 76.9 µM), for inactives: at the highest dose activation (cAMP increase), actives largely listed as activators | 340,000 compounds, 0.13% hits | AID 624287; active = well fitted activation curve with a large enough effect; inconclusive = small, poorly fitted or top-dose-only effect, or another doubt; inactive = no such curve, though single readings can be large or run the other way; cell line not stated here;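 also: phosphodiesterase inhibitor Ro 20-1724 added with compounds to block cAMP breakdown; potency is read from the fitted curve at half-maximal effect; nearly all actives have a fitted effect of over 60% in size; about a fifth of the inactives were tested at one dose only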
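Cells stably selected in G418 were plated at 2000/well, grown 16-24 hr, then given compounds in DMSO with the PDE inhibitor […] (300 uM solution added) for 30 min at 37C; cAMP was read by HTRF.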
Sfp PPTase inh: blocks B. subtilis Sfp PPTase activity; 310,000 compounds, 3.5% hits; Potency, µM, for the others: max response, negative = inhibition, most hits filed as inhibitors; Q9F4F7; Biochemical Sfp PPTase activity, qHTS; active = well fitted inhibition curve with a large enough effect; inconclusive = small, poorly fitted or top-dose-only effect, or another doubt; inactive = no such curve, though single readings can be large or run the other way;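 also: the enzyme is Sfp with the accession as filed and its product quenches rhodamine fluorescence; potency is read from the fitted curve at half-maximal effect; 0% = enzyme reaction without inhibitor and -100% = no enzyme wells; top concentration of the series not given in the record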
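With Hepes-Na pH 7.6 buffer containing 10 mM MgCl2, Sfp (15 nM) modified BHQ-2-YbbR (12.5 uM) using rhodamine-CoA (5 uM). Two reads 30 minutes apart at 525/598 nm yielded each well's rate.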
Menin MLL FP FL: menin-MLL binding inhibition, fluorescein peptide | FP activity change, % at 61.4 µM | Fluorescence polarization, fluorescein-MLL peptide displacement from menin | AID 1766 | 290,000 tested, under 10 active; inconclusive = falling polarisation curve, or a change in total fluorescence; inactive = total fluorescence flat and polarisation flat or rising; no compound was filed as active; the % refers to the polarisation; negative = inhibition;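 also: % of control where 0% means no effect; inhibitors lower the polarisation; unlabelled MLL peptide was the positive control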
gsp antagonist: antagonizes gsp, the McCune-Albright syndrome mutation; gsp-mutant cells, cAMP HTRF, 30 min; control for the full effect not named in the record; Potency, µM (series often up to 76.9 µM), inactives show top-dose activity change, negative = inhibition, hits mostly inhibitors; 340,000 compounds, 0.4% hits; AID 624288; active = falling curve of any shape with a large fitted effect; inconclusive = falling curve, mostly with a smaller effect; inactive = flat or rising curve; cell line not stated here;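 also: intracellular cAMP measured with PDE inhibitor Ro 20-1724 present during compound exposure; potency is read from the fitted curve at half-maximal effect; % is scaled to controls: 0 for no effect and ±100 for the full control effect; nearly all actives have a fitted effect of over 65% in size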
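HTRF cAMP read-out (cAMP-d2 plus anti-cAMP antibody-K in lysis buffer, 30 min RT). Before lysis, cells are exposed to compounds with […] for 30 min at 37C in DPBS containing Ca/Mg, BSA and Tween 20.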
The depositor's hits bear a star; ? = inconclusive; · = no result given; [ ] = remark or other dose. Outcome played no part in choosing rows; overall some 5.1% were active at least once.

The line under a structure holds: D2 agonist | PINK1 expr mod | ClpP mod | gsp ag | Sfp PPTase inh | Menin MLL FP FL | gsp antagonist
Cc1cc(C)c(CN2CCC(CO)(CCOc3ccccc3)CC2)cc1C
    -4.9 | 6.2% | 0.7% | ? | 2% | 0.3 | 6%
CS(=O)(=O)c1ccc(Nc2nc(C(N)Cc3ccccc3)cs2)cc1 (stereo unspecified)
    10 | -0.2% | -14% | · | · | · | ·
COc1cccc(/C=C(\C)C(=O)c2c(C)cc(C)[nH]c2=O)c1OC
    -1.1 | -0.4% | -1.6% | 13% | 23% | 2.2 | 6%
CN1C(=O)[C@H]2[C@@H](/C=C/c3ccccc3)N3C(=O)CN(Cc4ccccc4)C(=O)[C@@]3(C)[C@H]2C1=O
    -2.8 | 0.1% | -2.9% | · | 12% | 2.8 | 0%
O=c1nc(/C=C/c2ccccc2C(F)(F)F)cc(C(F)(F)F)[nH]1
    -2.7 | -1.2% | -4.7% | -9% | 5% | 1.8 | -11%
COc1ccc(S(=O)(=O)N2CCCCCC2)cc1C(=O)OCC(=O)NCC(C)C
    -4.4 | 0.9% | 0.1% | -15% | 3% | -0.3 | 1%
Cc1c(NC(=S)N2CCN(c3cccc(Cl)c3)CC2)c(=O)n(-c2ccccc2)n1C
    -5.0 | 0.6% | · | -28% | -3% | 5.1 | 3%
CCC(=O)N/C=C/n1cnc2cc(C(F)(F)F)ccc21
    -0.6 | 0.3% | 0.8% | -34%[inhibitor] | 8% | 0.2 | 15%
O=C(O)c1ccccc1C(=O)NCC(O)c1ccccc1 (stereo unspecified)
    0.6 | 0.0% | · | -12% | 13% | 1.6 | 6%
COc1ccc(C(=O)NC(=S)N2CCOCC2)cc1[N+](=O)[O-]
    2.3 | 1.8% | -0.5% | -57%[inhibitor] | -5% | · | 14%
COc1ccc(NC2=C(NCCO)C(=O)c3ccccc3C2=O)cc1
    0.6 | 5.9% | 0.0% | 18% | -1% | · | -3%
COc1cccc(Nc2nc(N)c([N+](=O)[O-])c(NCc3ccccc3)n2)c1
    -7.2 | 22% | -1.6% | 13% | -7% | 1.8 | 9%
O=c1cnc2cnc(N3CCOCC3)nc2n1Cc1cccs1
    · | -0.3% | · | · | 7% | 0.2 | ·
CN(C)S(=O)(=O)N1CCN(C(=O)N2CCCCCC2)CC1
    -1.0 | 2.9%[38.3 µM] | 0.2% | 2% | 14% | 4.0 | 7%
COc1cc(C2N3CC4(C)CN2CC(C)(C3)C4)ccc1O (stereo unspecified)
    -3.9 | 2.8% | -0.8% | ? | -3% | 3.9 | 9%
c1ccc2c(CCc3ccncc3)cccc2c1
    -3.8 | 0.9% | · | -10% | · | · | 2%
O=S(=O)(c1ccc(-c2ccccc2)cc1)N1CCCC1
    -6.4 | 1.3% | -0.4% | -26% | -7% | -2.8 | -1%
COc1cccc(-c2c3c([nH]c(=O)c2C#N)CCc2cc(OC)ccc2-3)c1
    -4.7 | ? | 1.0% | 16%[15.4 µM] | -8% | 1.4 | -3%
CCOC(=O)C(=Cc1cc(=O)c(OC)co1)C(=O)OCC
    3.1 | -1.2% | -3.1% | ? | 6.3µM* | 2.6 | ?
NC(=O)C1CCCN(C(=O)c2ccc3oc(Cc4ccc(Cl)cc4)nc3c2)C1 (stereo unspecified)
    -3.5 | -0.2% | -3.7% | 0% | -5% | · | 1%

Ordered by the number under Sfp PPTase inh (largest number first): three from the list above
mol	D2 agonist	PINK1 expr mod	gsp ag	Sfp PPTase inh	Menin MLL FP FL	gsp antagonist
COc1ccc(C(=O)NC(=S)N2CCOCC2)cc1[N+](=O)[O-]	2.3	1.8%	-57%[inhibitor]	-5%	·	14%
COc1cccc(Nc2nc(N)c([N+](=O)[O-])c(NCc3ccccc3)n2)c1	-7.2	22%	13%	-7%	1.8	9%
COc1cccc(-c2c3c([nH]c(=O)c2C#N)CCc2cc(OC)ccc2-3)c1	-4.7	?	16%[15.4 µM]	-8%	1.4	-3%

(further entries)
The line under a structure holds: D2 agonist | PINK1 expr mod | ClpP mod | gsp ag | Sfp PPTase inh | Menin MLL FP FL | gsp antagonist
O=C(Nc1ncc2c(n1)-c1ccccc1CC2)c1ccc(F)cc1
    0.2 | -1.5% | -29% | ? | 4% | -2.4 | -6%
CCC1(C)Cc2c(sc3c2c2ncnn2c2nnc(SCC(=O)NCc4ccco4)n32)CO1 (stereo unspecified)
    -1.5 | 13% | -17% | 2.8µM* | -4% | 0.3 | -1%[15.4 µM]
CCOC(=O)c1nnn(CC(=O)Nc2cc(Cl)ccc2C)c1C(=O)OCC
    0.9 | -0.3% | -1.0% | -19% | 0% | 2.0 | 10%
CSc1nc(N2CCN(c3ccccc3Cl)CC2)c2ccccc2n1
    -7.7 | 0.9% | · | 10%[15.4 µM] | ? | 0.0 | -16%
CNS(=O)(=O)c1cccc(C(=O)OCCCC(=O)c2ccccc2)c1
    12 | -0.9% | 0.4% | -3% | · | · | -1%
CCN(CC)C(=O)CSc1nnc(COc2ccc(OC)cc2)n1N
    -3.2 | 1.1% | ? | 15%[15.4 µM] | 7% | -2.4 | -5%
O=C(c1ccc2nc[nH]c2c1)N1CCN(S(=O)(=O)c2cccc(F)c2)CC1
    -4.6 | 0.7% | -0.4% | -23%[15.4 µM] | · | · | -11%
O=S(=O)(Cc1ccccc1)N1CCn2c(nc3ccccc32)C1
    -0.3 | 0.8% | -0.4% | -3% | -4% | 2.6 | 8%
Cc1cccc(NC(=O)Cc2ccc(Br)cc2)n1
    -2.6 | 2.7% | · | -16% | 19% | -5.8 | 6%
O=C(NCc1ccccc1Cl)C(=O)NCC(c1ccco1)N1CCOCC1 (stereo unspecified)
    0.1 | -0.6% | · | -3%[15.4 µM] | 14% | -2.9 | 1%
O=C(NCC1CCCN(Cc2ccc3c(c2)OCCO3)C1)c1ccc2c(c1)OCO2 (stereo unspecified)
    -1.7 | -1.1% | · | -23% | 14% | 2.3 | -2%
COc1ccc(S(=O)(=O)N2CCN(c3cnccn3)CC2)cc1OC
    -0.2 | -1.4% | · | -4% | · | · | 8%
COc1cc(C(=O)N(C)CC2CCN(CCc3cccc(C(F)(F)F)c3)CC2)ccc1C
    2.2 | 1.6% | · | -3% | 6% | -11 | -7%
CCCNC(=O)C1(C)CCN1C(=O)Cc1ccc(-c2ccccc2)cc1 (stereo unspecified)
    7.9 | 1.4% | -1.3% | · | · | · | ·
Cc1cccc(NS(=O)(=O)c2ccc(C)c(C(N)=O)c2)c1
    -3.6 | -0.3% | · | 53%[15.4 µM] | 8% | -1.4 | -1%
Cc1[nH]n(-c2ccc([N+](=O)[O-])cc2)c(=O)c1C=NCCN1CCN(C(=O)C(C)C)CC1
    2.0 | -0.7% | -1.7% | ? | 7% | 1.1 | -1%
CCOC(=O)C1(C)CCN1C(=O)c1cc(F)ccc1C (stereo unspecified)
    -0.7 | -0.6% | 0.9% | · | · | · | ·
COc1cc(/C=C/C(=O)c2ccc(NS(=O)(=O)c3ccc(C)cc3)cc2)cc(OC)c1O
    1.2 | 0.5% | -1.4% | 16% | -8% | ? | 6%
CCOc1c(N2CC(C)OC(C)C2)c(=O)c1=O (stereo unspecified)
    0.7 | -0.4% | · | 13%[15.4 µM] | 27% | 0.4 | -2%
CCN(CC)S(=O)(=O)c1cccc(-c2nc3n(n2)Cc2ccccc2-3)c1
    -1.9 | ? | 0.6% | 6% | 11% | 0.5 | 14%
CCCCOc1ccc(-c2nnc(-c3ccco3)o2)cc1
    -4.2 | 4.5% | ? | -2% | -1% | 1.3 | -10%
COc1ccc(NC(=O)CSc2nc(-c3ccncc3)nn2CC(=O)N2CCCC2)cc1
    -2.6 | 26%[38.3 µM] | -2.4% | -20% | 12% | -1.9 | 2%
COc1ccc(Br)cc1CN1CCN(C(=O)c2cccc(OC)c2OC)CC1
    -1.7 | 0.2%[38.3 µM] | 0.1% | -5% | ? | 0.2 | -1%
COc1ccc(OCC(O)CN2CCCCCC2)cc1 (stereo unspecified)
    0.4 | 6.0%[38.3 µM] | 2.4% | 24% | -13% | -1.6 | -3%
CCOC(=O)C(=O)N=Nc1c(O)[nH]c2ccccc12
    -5.9 | -1.2% | 22µM* | -14% | 3% | 1.0 | -2%
C[C@H](CO)N1C[C@H](C)[C@H](CN(C)C(=O)c2ccncc2)OCc2cnnn2CCCC1=O
    -8.1 | 1.0% | -6.4% | 12% | · | · | ·
CCCC(=O)N(C1CC(C)C(C#N)(C#N)C1(C#N)C#N)N(C)C (stereo unspecified)
    -13 | 4.1% | · | 6%[15.4 µM] | 1.8µM* | 0.5 | -3%
Cc1ccccc1NC(=O)Cc1nc(CSc2nnc(C3CCCCC3)n2N)cs1
    0.5 | -1.9%[38.3 µM] | 0.2% | -2% | 3% | -0.6 | 12%
O=C1COc2ccc(C(=O)COC(=O)c3cccnc3Cl)cc2N1
    2.4 | 0.1% | · | -24%[15.4 µM] | 13% | 0.7 | ·
CCN(CC)CCC(C)OC(=O)c1ccc(O)cc1O (stereo unspecified)
    -4.4 | 0.0% | · | 0%[15.4 µM] | 10% | 0.1 | -11%
CCCN(CCC)CCCNS(=O)(=O)c1cc(Br)cc2c1N(C(C)=O)CC2
    7.2 | -0.8% | 0.4% | 3% | 3% | 0.2 | 8%
COc1ccccc1NCCC(=O)OCC(=O)Nc1ccccc1Cl
    2.4 | -1.6% | 1.2% | 13% | · | · | 6%
CC[C@H](C)[C@H](NS(=O)(=O)c1ccc(C)cc1)C(=O)N1CCC(C(=O)N[C@@H](C)C(=O)O)CC1
    0.9 | -5.4%[38.3 µM] | 1.6% | -15% | 15% | 6.3 | 7%
CCCC(=O)Nc1ccc(N2CCN(S(C)(=O)=O)CC2)cc1
    5.0 | -0.8% | -2.2% | -53%[inhibitor] | 8% | 8.2 | 15%
Cc1ccc(-n2c(=O)[nH]cc(C(=O)Nc3ccc4c(c3)OCO4)c2=O)cc1C
    -3.2 | 23% | -0.2% | ? | 7% | 1.9 | -14%
COc1ccc(S(=O)(=O)N2CCN(CC(=O)NC(Cc3ccccc3)C(C)=O)CC2)cc1 (stereo unspecified)
    -2.1 | 2.2% | -0.8% | 13% | · | · | -7%
